rRNA inh HTS – inhibitors of bacterial rRNA selective over humanized ribosomes; E. coli WT GFP vs humanized-ribosome RFP mutants, fluorescence, 24 h; active compounds read low; DMSO median 0, no signal -100; GFP signal change (wild-type ribosome), % (concentration not given with the values); 350,000 tested, 1.6% active;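 active = significant combined selectivity score with lowered wild-type GFP, culture density cut under 30%, mutant RFP and density less affected; inactive = any of these conditions unmet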; note: one replicate is shown; some compounds called inactive have numbers as strong as hits
FGF22 binding – FGF22 (human) thermal shift binding | recombinant FGF22 thermal shift, SYPRO orange fluorescence; percent of sucrose octasulfate shift, DMSO zero | calls only at 9.99 µM | 340,000 tested, 1.5% active;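 active = melting point raised past a set limit in the mean and every replicate; three in four hits are not shown here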
Target sequence (Q9HCT0 whole entry, looked up): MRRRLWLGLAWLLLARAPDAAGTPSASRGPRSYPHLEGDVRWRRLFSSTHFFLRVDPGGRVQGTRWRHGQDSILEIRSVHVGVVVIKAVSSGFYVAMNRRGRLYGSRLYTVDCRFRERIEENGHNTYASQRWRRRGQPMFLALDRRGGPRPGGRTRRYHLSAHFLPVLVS
AF4-AF9 inh – MLL-AF4/AF9 protein interaction inhibition; AID 651704; AlphaScreen, biotin-AF4 peptide binding to FLAG-AF9; 350,000 tested, 0.47% active; inhibition, % at 10 µM; P42568;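 active = every replicate reaching a set inhibition limit, whatever the replicate mean, cut at about 25% in these data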;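 note: 0% = plate neutral control median and 100% = total signal loss; the record names both 10 and 1 µM as test concentration; the first replicate is given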
Target sequence (P42568 whole entry, looked up): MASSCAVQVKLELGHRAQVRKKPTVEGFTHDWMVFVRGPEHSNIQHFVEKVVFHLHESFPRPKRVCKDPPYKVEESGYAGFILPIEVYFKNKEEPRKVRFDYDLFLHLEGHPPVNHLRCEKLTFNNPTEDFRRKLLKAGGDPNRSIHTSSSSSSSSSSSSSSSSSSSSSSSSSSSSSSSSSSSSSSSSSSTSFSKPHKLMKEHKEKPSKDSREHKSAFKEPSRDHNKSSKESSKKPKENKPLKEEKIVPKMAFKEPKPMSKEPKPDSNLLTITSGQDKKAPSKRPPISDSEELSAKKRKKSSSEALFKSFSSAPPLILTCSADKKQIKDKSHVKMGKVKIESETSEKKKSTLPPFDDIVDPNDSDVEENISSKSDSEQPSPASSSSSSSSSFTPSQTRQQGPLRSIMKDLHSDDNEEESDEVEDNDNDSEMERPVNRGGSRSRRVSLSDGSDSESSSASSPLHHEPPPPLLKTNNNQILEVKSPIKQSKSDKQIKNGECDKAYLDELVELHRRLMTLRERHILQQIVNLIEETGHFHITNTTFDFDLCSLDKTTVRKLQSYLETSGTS
rRNA inh HTS OD600 – recorded beside rRNA inh HTS, whose call it bears; OD600 change, %; measured here: OD600 growth;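 optical density of the mix in the first replicate; 0 = DMSO median and -100 = no signal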
rRNA inh HTS RFP – recorded beside rRNA inh HTS, whose call it bears; RFP signal change, %; measured here: RFP humanized mutant strains;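 first replicate; 0 = DMSO median and -100 = no signal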
An asterisk follows results filed as active; i = inactive; & = joins results of further samples.

cpd | rRNA inh HTS OD600 | AF4-AF9 inh | FGF22 binding | rRNA inh HTS RFP | rRNA inh HTS | mol
1 | -2 | -2.4 | i | -0.3 | 1 | CCCNC(=O)N(C)C[C@H]1Oc2ncc(-c3ccc(F)cc3)cc2C(=O)N([C@H](C)CO)C[C@H]1C
2 | 16 | -2.0 | i | -1.8 | 3 | N#C[C@H]1[C@H](c2ccc(-c3cncnc3)cc2)[C@@H](CO)N1C(=O)CN1CCOCC1
3 | -8 | 12 | i | 1.6 | -2 | COc1ccc(CN(C)C[C@H]2Oc3ccc(NC(=O)Nc4ccc5c(c4)OCO5)cc3CC(=O)N([C@@H](C)CO)C[C@@H]2C)cc1
4 | -9 | -8.4 | i | 0.7 | -6 | Cc1ccccc1-c1cnc2c(c1)C(=O)N([C@H](C)CO)C[C@@H](C)[C@@H](CN(C)C(=O)c1ccc(F)cc1)O2
5 | 3 | -3.9 | i | -2.0 | 3 | CC(C)NC(=O)N(C)C[C@@H]1Oc2ncc(-c3ccccc3F)cc2C(=O)N([C@H](C)CO)C[C@@H]1C
6 | 1 | 2.1 | i | 0.5 | -3 | C[C@H](CO)N1C[C@H](C)[C@@H](CN(C)S(=O)(=O)c2ccccc2)Oc2ccc(N(C)C)cc2C1=O
7 | 15 | -2.4 | i | 2.2 | 22 | CC(=O)NC(c1ccc(F)c(F)c1)c1nc(-c2cnn(C)c2)cs1 (centres undefined)
8 | -7 | -5.4 | i | -2.6 | -1 | CN(C)C(=O)[C@H]1N[C@H]2c3ccc(-c4ccc(F)cc4)c(=O)n3C[C@H]2[C@@H]1CO
9 | 6 | 1.0 | i | -0.5 | 7 | C[C@@H]1CCCCO[C@@H](CN(C)CC2CC2)[C@H](C)CN([C@H](C)CO)C(=O)c2cc(NC(=O)C3CCCCC3)ccc2O1
10 | 6 | 1.6 | i | -1.9 | 3 | O=C(NCC[C@H]1CC[C@H](NS(=O)(=O)c2cccc(Cl)c2)[C@H](CO)O1)c1cnccn1
11 | 8 | -2.8 | i | -2.7 | 4 | C[C@@H]1CN([C@@H](C)CO)S(=O)(=O)c2ccc(C#CC(C)(C)O)cc2O[C@@H]1CN(C)Cc1ccncc1
12 | 8 | -0.8 | i | 0.2 | 4 | C[C@H]1CN([C@@H](C)CO)C(=O)Cc2cc(NC(=O)Nc3ccc(C(F)(F)F)cc3)ccc2O[C@H]1CN(C)Cc1ccc(-c2ccccc2)cc1
13 | 1 | -5.0 | i | 0.4 | 1 | CC(C)NC(=O)N1[C@H](CO)[C@@H](c2ccc(C#CC3CCCCC3)cc2)[C@@H]1C#N
14 | 4 | -1.4 | i | -1.4 | 1 | C[C@@H]1CN([C@@H](C)CO)C(=O)c2cc(NS(=O)(=O)c3ccc(F)cc3)ccc2O[C@@H]1CN(C)C
15 | 5 | -17 | i | -2.5 | 3 | Cc1ccc(S(=O)(=O)NCC[C@H]2CC[C@@H](NC(=O)NC(C)C)[C@@H](CO)O2)cc1
16 | 10 | -3.7 | i | -1.2 | 2 | C[C@H](CO)N1C[C@H](C)[C@@H](CN(C)C(=O)C2CCC2)Oc2cc(C#C[C@@H](C)O)ccc2S1(=O)=O
17 | 7 | -1.2 | i | -4.6 | -1 | CN1[C@H](C(=O)NC2CCC2)[C@@H](CO)[C@@H]2Cn3c(ccc(-c4cccc(F)c4)c3=O)[C@@H]21
18 | 12&1 | 2.3&2.0 | i | 7.3&-5.8 | 1&-1 | Cc1ccc(OC(=O)N(C)C[C@H]2OCc3cn(nn3)CCCC(=O)N([C@H](C)CO)C[C@@H]2C)cc1
19 | 8 | -2.2 | i | -0.3 | 4 | CO[C@@H]1CN(C)C(=O)c2ccc(NC(=O)C3CC3)cc2OC[C@@H](C)N(C(=O)c2cnccn2)C[C@@H]1C
20 | -6 | -0.2 | i | 0.4 | -5 | CC(C)NC(=O)Nc1ccc2c(c1)C(=O)N(C)[C@H]1CC[C@@H](CC(=O)NCC3CCCCC3)O[C@H]1CO2
21 | -24 | 0.9 | i | 0.8 | -6 | COc1ccccc1-c1ccc2c(c1)O[C@H](CN(C)C(=O)c1ccccc1)[C@@H](C)CN([C@H](C)CO)S2(=O)=O
22 | -10 | 1.8 | i | 1.0 | 1 | CC(C)NC(=O)Nc1cccc2c1O[C@@H](CN(C)C(=O)Nc1cccc3ccccc13)[C@@H](C)CN([C@@H](C)CO)C2=O
23 | 11 | -0.1 | i | -0.1 | 4 | Cc1noc(C)c1NC(=O)N(C)C[C@H]1Oc2cc(C#CCN(C)C)ccc2S(=O)(=O)N([C@H](C)CO)C[C@H]1C
24 | 2 | -2.4 | i | -2.2 | 1 | CCCC#Cc1cnc2c(c1)C(=O)N([C@@H](C)CO)C[C@H](C)[C@H](CN(C)Cc1ccc(C(=O)O)cc1)O2
25 | 3 | 1.1 | i | 2.1 | 0 | O=C(C[C@@H]1C[C@H]2c3cc(NC(=O)C4CCC4)ccc3O[C@H]2[C@@H](CO)O1)NCc1ccc(Cl)cc1

Single entries from the list:
rRNA inh HTS, compound 25 → 0
AF4-AF9 inh, compound 22 → 1.8

Whole records as entered above. Order of values: rRNA inh HTS OD600, AF4-AF9 inh, FGF22 binding, rRNA inh HTS RFP, rRNA inh HTS
CC(C)NC(=O)Nc1ccc2c(c1)C(=O)N(C)[C@H]1CC[C@@H](CC(=O)NCC3CCCCC3)O[C@H]1CO2 is entered as -6, -0.2, i, 0.4, -5
CC(C)NC(=O)Nc1cccc2c1O[C@@H](CN(C)C(=O)Nc1cccc3ccccc13)[C@@H](C)CN([C@@H](C)CO)C2=O is entered as -10, 1.8, i, 1.0, 1
N#C[C@H]1[C@H](c2ccc(-c3cncnc3)cc2)[C@@H](CO)N1C(=O)CN1CCOCC1 is entered as 16, -2.0, i, -1.8, 3
CN(C)C(=O)[C@H]1N[C@H]2c3ccc(-c4ccc(F)cc4)c(=O)n3C[C@H]2[C@@H]1CO is entered as -7, -5.4, i, -2.6, -1
CC(C)NC(=O)N1[C@H](CO)[C@@H](c2ccc(C#CC3CCCCC3)cc2)[C@@H]1C#N is entered as 1, -5.0, i, 0.4, 1

The list continues:
cpd | rRNA inh HTS OD600 | AF4-AF9 inh | FGF22 binding | rRNA inh HTS RFP | rRNA inh HTS | mol
26 | 7 | -2.0 | i | -2.1 | 5 | CC(C)C#Cc1cnc2c(c1)C(=O)N([C@H](C)CO)C[C@@H](C)[C@H](CN(C)C(=O)c1ccccn1)O2
27 | -77 | -1.1 | i | -16 | -55 | COc1ccccc1CNC(=O)C[C@@H]1CC[C@H]2[C@@H](COC[C@@H](O)CN2C(=O)Nc2ccc(C(F)(F)F)cc2)O1
28 | 10 | -1.3 | i | -0.8 | 2 | Cc1ccc(-c2ccc([C@@H]3[C@H](CO)N4C(=O)CN(C(=O)CN5CCOCC5)C[C@@H]34)cc2)cc1
29 | 8 | 5.1 | i | 2.5 | 8 | CCOC1=C2CN(S(=O)(=O)c3ccc(C)cc3)[C@H](c3cccc4ccccc34)C[C@H]2[C@H]2C(=O)N(c3ccccc3)C(=O)[C@H]2C1
30 | 2 | 9.0 | i | -4.0 | 3 | CO[C@@H]1CN(C)C(=O)c2cc(NC(=O)Nc3ccc4c(c3)OCO4)ccc2OC[C@H](C)NC[C@H]1C
31 | 2 | -0.2 | i | 3.1 | 1 | Cc1cccc(-c2ccc([C@@H]3[C@@H](CO)N4C(=O)CN(S(=O)(=O)c5cccc(F)c5)C[C@@H]34)cc2)c1
32 | -6 | -4.1 | i | 0.3 | 0 | CO[C@H]1CN(C)C(=O)c2ccc(NC(C)=O)cc2OC[C@H](C)N(C(=O)C2CCOCC2)C[C@H]1C
33 | -5 | 3.6 | i | 0.2 | 0 | CNC(=O)C[C@@H]1CC[C@H]2[C@@H](COC[C@H](O)CN2S(=O)(=O)c2ccc(Oc3ccccc3)cc2)O1
34 | 1 | -0.9 | i | 0.0 | 0 | C[C@H]1CCCCO[C@H](CN(C)C(=O)c2ccncc2)[C@@H](C)CN([C@@H](C)CO)C(=O)c2cc(N(C)C)ccc2O1
35 | 5 | -6.1 | i | 0.8 | 7 | CO[C@@H]1CN(C)C(=O)c2cc(NC(=O)c3cccc(F)c3)ccc2OC[C@H](C)NC[C@@H]1C
36 | 0 | -4.3 | i | 1.1 | -4 | CC(C)NC(=O)Nc1ccc2c(c1)C(=O)N([C@H](C)CO)C[C@@H](C)[C@@H](CN(C)C(=O)c1ccncc1)OCCCC[C@H](C)O2
37 | -2 | 4.4 | i | -1.3 | -1 | C[C@@H]1CCCCO[C@@H](CN(C)S(=O)(=O)c2ccccc2)[C@H](C)CN([C@@H](C)CO)C(=O)c2cc(NC(=O)Nc3ccc4c(c3)OCO4)ccc2O1
38 | 6 | -2.9 | i | -1.1 | -1 | C[C@@H]1CCCCO[C@@H](CN(C)C(=O)CCC(F)(F)F)[C@@H](C)CN([C@@H](C)CO)C(=O)c2cc(NC(=O)NC3CCCCC3)ccc2O1
39 | -42 | 0.8 | i | -5.0 | -24 | COc1ccc(-c2ccc(C(=O)NCc3ccco3)c3occc23)c(C)c1
40 | 22 | -11 | i | -0.8 | 5 | O=C(N[C@@H]1C=C[C@H](CC(=O)N2CCN(c3ccccc3)CC2)O[C@@H]1CO)c1ccncc1
41 | 0 | -1.8 | i | -3.1 | 1 | O=C(C[C@@H]1C=C[C@@H](NC(=O)C2CCOCC2)[C@H](CO)O1)NCC1CC1
42 | -10 | 0.0 | i | -0.1 | -1 | C[C@@H]1CCCCO[C@@H](CN(C)Cc2ccccc2)[C@@H](C)CN([C@H](C)CO)C(=O)c2cc(NS(=O)(=O)c3ccccc3)ccc2O1
43 | 2 | -2.4 | i | 5.6 | 5 | CN(C)C(=O)c1cccc(-c2cc(NC=O)c3ncc(-c4ccc(F)cc4)n3c2)c1
44 | -15 | 0.8 | i | 8.7 | -2 | Cc1noc(C)c1NC(=O)Nc1ccc2c(c1)CC(=O)N([C@@H](C)CO)C[C@H](C)[C@@H](CN(C)Cc1ccc(Cl)c(Cl)c1)O2
45 | 0 | 1.7 | i | 9.8 | 13 | CCOc1ccc(CCN2C(=S)N([C@@H](Cc3ccc(O)cc3)CN3CCC[C@@H]3CN3C(=S)NC[C@@H]3Cc3ccccc3)C[C@@H]2CC(C)C)cc1
46 | -14 | 3.1 | i | 9.6 | -5 | CCCC(=O)N1CC2(CCN(C(=O)Nc3cccc(F)c3)CC2)c2c(n(C)c3cc(OC)ccc23)[C@@H]1CO
47 | -7 | 1.1 | i | -3.4 | -13 | C[C@@H]1CN([C@H](C)CO)C(=O)c2cccc(NC(=O)C3CCOCC3)c2O[C@H]1CN(C)Cc1ccc(Cl)c(Cl)c1
48 | -75 | 0.0 | i | -14 | -54 | CNC(=O)C[C@H]1CC[C@@H]2[C@H](COC[C@H](O)CN2C(=O)Nc2ccc(Cl)c(Cl)c2)O1
49 | -80 | 2.2 | i | -17 | -59 | CCC(C)[C@H](N)C(=O)N[C@H]1CCC2C3CC=C4C[C@@H](O)CC[C@]4(C)C3CC[C@@]21C (some centres undefined)
50 | -10 | 0.5 | i | 0.0 | -3 | CO[C@@H](CN(C)S(=O)(=O)c1cccc(Cl)c1)[C@H](C)CN(C(=O)Nc1ccccc1F)[C@H](C)CO
51 | -9 | 2.7 | i | -1.6 | -7 | O=S(=O)(N[C@H]1CC[C@H](CCn2cc(-c3cccnc3)nn2)O[C@H]1CO)c1ccc(Cl)cc1
52 | -3 | -2.0 | i | 2.2 | -1 | C[C@H](CO)N1C[C@H](C)[C@@H](CN(C)C(=O)Nc2ccc(F)cc2)OCCCC[C@H](C)Oc2ccc(NC(=O)CCC(F)(F)F)cc2C1=O
53 | -10 | 2.3 | i | 1.3 | 0 | COc1ccc(S(=O)(=O)Nc2ccc3c(c2)CC(=O)N([C@@H](C)CO)C[C@H](C)[C@H](CN(C)Cc2ccc(C(=O)Nc4ccccc4N)cc2)O3)cc1
54 | 10 | 5.7 | i | -6.8 | -3 | COC(=O)c1ccc(CN2CC(=O)N3[C@@H](CO)[C@H](c4ccc(Br)cc4)[C@@H]3C2)cc1
55 | 25 | -0.1 | i | -2.9 | 5 | C[C@H](CO)N1C[C@H](C)[C@H](CN(C)Cc2ccccc2)Oc2ccc(NC(=O)Cn3cnnn3)cc2C1=O
56 | -6 | 2.5 | i | 5.9 | -1 | Cc1ccccc1-c1cc2c(c3c1ccn3C)C1CCC2C1 (centres undefined)
57 | -3 | 1.9 | i | -0.3 | 3 | C[C@@H]1CN([C@@H](C)CO)C(=O)c2cccc(NS(=O)(=O)c3ccccc3)c2O[C@@H]1CN(C)CC1CCCCC1
58 | -2 | -2.7 | i | -3.1 | 0 | O=C(C[C@H]1C[C@H]2c3cc(NC(=O)Nc4ccccc4)ccc3O[C@H]2[C@@H](CO)O1)NCc1ccncc1
59 | 19 | -1.6 | i | 1.4 | 7 | CCNC(=O)C1CCCN(C(=O)c2ccc(OC)cc2)CC1 (centres undefined)
60 | 2 | -2.1 | i | -1.6 | 2 | C[C@H]1CN([C@@H](C)CO)C(=O)c2cc(NC(=O)c3ccncc3)ccc2O[C@H]1CN(C)C(=O)NC1CCCCC1
61 | -10 | 9.3 | i | 2.1 | -1 | C[C@@H]1CN([C@H](C)CO)C(=O)c2cccc(NC(=O)Nc3cccc4ccccc34)c2O[C@@H]1CN(C)Cc1ccc2c(c1)OCO2
62 | -1 | -2.5 | i | 0.6 | -3 | C[C@H]1CCCCO[C@@H](CN(C)Cc2ccncc2)[C@@H](C)CN([C@@H](C)CO)C(=O)c2cc(NC(=O)NC3CCCCC3)ccc2O1

Bioassay records: PubChem BioAssay, Broad Institute

Only part of the results is shown (hit frequency here may not be typical).
